Source: PubChem BioAssay (Center for Chemical Genomics, University of Michigan)
CDC25B CDK2 inh: human CDC25B-CDK2/CyclinA binding inhibition. z-score (no concentration beside the values). 0.72% of 94,000 active. P30305+P24941. HTRF CDC25B-CDK2/CyclinA binding, anti-His/anti-Flag; stronger effect = higher value. AID 1259370;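 further: score is relative to mean and SD of negative controls; strong numbers were not always called active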
HIV TAR-Tat: HIV-1 TAR-Tat binding disruption; HIV-1 TAR RNA, Tat peptide displacement FRET; stronger effect = higher value; z-score (test concentration not listed); 0.6% of 100,000 active; AID 1259389;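 further: score is relative to mean and SD of negative controls; some compounds called inactive have numbers as strong as hits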
Starred values were filed as active, the others as inactive; nt = no result given.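 How the source made its calls: active means z-score from 3 up in half or more of its runs; inactive means the rest.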

Compound | CDC25B CDK2 inh | HIV TAR-Tat
CC(C)CCNC(=O)CN1C(=O)c2ccccc2S1(=O)=O | -1.8 | nt
Cc1ccc2c(c1)NC(c1ccc(C)o1)=NC(c1cccs1)=N2 | -2.5 | -0.28
Cc1ccccc1C1CCCN1C(=O)c1cnn2cc(Br)cnc12 (stereo unspecified) | -1.9 | 0.82
Cc1ccc(S(=O)(=O)OCC(NC(=O)OC(C)(C)C)C(=O)OCc2ccccc2)cc1 (stereo unspecified) | -0.47 | nt
O=C(NNC1=C(C(=O)C(F)(F)F)CCC1)c1cccc(Cl)c1 | -2.3 | nt
O=C(CSc1nnc2c(n1)[nH]c1ccccc12)Nc1ccc(Cl)cc1 | -0.78 | 0.87
Cc1cc(C)c2c(=O)c3c(oc2c1)C(=O)N(Cc1ccco1)C3c1ccc(Cl)cc1 (stereo unspecified) | -1.5 | 1.9
CCN(Cc1ccccc1)C(=O)Nc1c[nH]c2ccccc2c1=O | -2.2 | 1.8
O=C1/C(=C/c2ccncc2)COc2ccccc21 | -1.3 | nt
Cn1c(=O)c2c(-c3ccc(Br)cc3)n(CC3CCCO3)cc2n(C)c1=O (stereo unspecified) | -1.6 | 0.75
Cc1ccc(S(=O)(=O)c2nc(S(C)(=O)=O)sc2NCCCOC(C)C)cc1 | -1 | -0.07
Cn1c(=O)c2c(-c3cccc(Br)c3)n(CCc3ccccc3)cc2n(C)c1=O | 0.21 | 1
Cc1ccc(CNC(=O)NCc2cccn2Cc2c(C)cc(C)cc2C)cc1 | nt | 1.6
CC(CS(=O)(=O)c1ccc2c(c1)NC(=O)C(C)S2)C(=O)N1CCCCC1 (stereo unspecified) | nt | -0.56
CCOC(=O)C1=C(C)Nc2nc3ccccc3n2C1c1ccco1 (stereo unspecified) | -0.93 | -0.64
O=C(NCCC1=CCCCC1)c1ccc(CS(=O)c2cccc(Cl)c2)o1 (stereo unspecified) | nt | 2.5
CS(=O)(=O)c1ncc(Cl)c(C(=O)N2CCN(C(c3ccccc3)c3ccccc3)CC2)n1 | -3.1 | 1.6
O=C(C1CCN(Cc2cnn(-c3ccccc3)c2-n2cccc2)CC1)N1CCN(c2ccccn2)CC1 | -0.49 | 0.08
CCOCCCNC(=O)C1CCN(C(=O)c2cc3sccc3n2C)CC1 | 0.09 | 1.1
Cc1ccc(S(=O)(=O)NCc2ccccc2)cc1-c1nnc2c3ccccc3c(C)nn12 | -1.5 | 0.59
Cc1ccc2nc(-n3nc(C)c4c3NC(=O)CC4c3cccc(Br)c3)sc2c1 (stereo unspecified) | nt | 1.2
COc1ccc(NC(=O)c2cc3n(n2)C(C(F)(F)F)CC(c2ccco2)N3)cc1 (stereo unspecified) | 1.7 | 2.2
CCCCCOc1ccc(C2Nc3ccccc3NC3=C2C(=O)CC(C)(C)C3)cc1 (stereo unspecified) | -0.55 | 0.25
CCC1Sc2ccc(S(=O)(=O)CCC(=O)Nc3cc(C)ccn3)cc2NC1=O (stereo unspecified) | nt | 0.27
Cc1cc(=O)n2[nH]c(CN(C(=O)CC(C)C)c3ccc(Cl)cc3)nc2n1 | -1.7 | 0.39
COc1ccc(NC(=O)CC2(CC3=NS(=O)(=O)c4ccccc4N3)CCCC2)c(OC)c1 | nt | 0.71
O=C(Nc1ccc(C(F)(F)F)cc1)O/N=C/c1ccccn1 | -1.6 | nt
CCOC(=O)c1cccc(NC(=O)c2cc(OCC)c(OCC)c(OCC)c2)c1 | -1.6 | nt
O=C(NC1CCCCC1)C1CCCN(S(=O)(=O)N2CCCCC2)C1 (stereo unspecified) | nt | -0.66
COCCn1c(SCC(=O)Nc2nc(C)cs2)nc2c(c1=O)SCC2 | -2.1 | -0.07
O=C(CSc1nc(-c2ccc(F)cc2)cc(C(F)(F)F)n1)N1CCOCC1 | -0.15 | -0.15
CNc1nc(N2CC(C)OC(C)C2)nc(N)c1[N+](=O)[O-] (stereo unspecified) | -0.17 | nt
CCOC(=O)Cn1c(=O)n(-c2ccc(Cl)cc2)c(=O)c2c3c(sc21)COC(C)(C)C3 | -2.1 | 1.4
O=[N+]([O-])c1ccc(OCC(F)(F)F)nc1 | -1.2 | nt
CC(C)(C)CC(=O)Nc1nc2c(s1)C(=O)CC(C)(C)C2 | -0.55 | -1
S=C(NCc1ccco1)Nc1cccc2ccccc12 | 1.2 | nt
CCn1c(NCc2ccccc2F)nc2ccccc21 | -1.6 | 1.8
Fc1ccc(-c2noc3ncnc(N4CCN(c5ccccc5F)CC4)c23)cc1 | 0.34 | -0.05
COc1ccccc1-n1cc(-c2ccccc2)c2c(N(C)C)ncnc21 | 0.2 | 0.47
CNS(=O)(=O)c1cn(CC(=O)NC2CCC(C)CC2)cc1S(=O)(=O)NC (stereo unspecified) | nt | -0.65

3 entries drawn at random from the list so far, as already listed:
Compound | CDC25B CDK2 inh | HIV TAR-Tat
S=C(NCc1ccco1)Nc1cccc2ccccc12 | 1.2 | nt
CCn1c(NCc2ccccc2F)nc2ccccc21 | -1.6 | 1.8
Fc1ccc(-c2noc3ncnc(N4CCN(c5ccccc5F)CC4)c23)cc1 | 0.34 | -0.05

Next part.
Compound | CDC25B CDK2 inh | HIV TAR-Tat
C#CC(CC)(CC)NC(=O)COc1cc(Cl)c(Cl)cc1Cl | -1.8 | nt
CCOC(=O)c1sc(N)c(C(=O)OCC)c1C | 0.14 | 1.5
O=C1N=c2ccc([N+](=O)[O-])cc2=C1c1sc(NS(=O)(=O)c2ccccc2)nc1O | -3.5 | nt
CCOC(=O)c1c(NC(=O)C2C3C=CC(CC3)C2C(=O)O)sc2c1CC(C)CC2 (stereo unspecified) | -2.4 | 4
Cc1ccc2c(c1)NCC(CC1CCCC1)O2 (stereo unspecified) | -2 | -0.25
O=C(Cn1cc2c(n1)CCCCC2)Nc1c(F)c(F)c(F)c(F)c1F | -1.2 | nt
CCOC(=O)c1sc(NC(=O)C2c3ccccc3Oc3ccccc32)c(C#N)c1C | 0.39 | nt
N#CC1=C(N)Oc2nc[nH]c(=O)c2C1c1ccccc1C(F)(F)F (stereo unspecified) | 0.88 | nt
CCCN(CCC)S(=O)(=O)c1ccc(C(=O)NNC(=S)Nc2cccc(OC)c2)cc1 | -0.81 | nt
COc1ccc(-c2nc(-c3ccccc3)no2)cc1OC | -0.72 | -1.1
CC1=NN(C)C(=O)/C1=N\OC(=O)c1ccc(OC(F)(F)F)cc1 | -1.8 | nt
Cc1ccc(N(Cc2cc(=O)n3ccccc3n2)C2=NC3CS(=O)(=O)CC3S2)cc1Cl (stereo unspecified) | -0.77 | 0.14
COCCNc1sc(S(=O)(=O)c2ccc(C)cc2)nc1S(=O)(=O)c1ccc(C)cc1 | -3.3 | -1.6
CC(=O)NC(C(=O)O)C(C)(C)SN=O (stereo unspecified) | nt | 0.5
COc1cccc2c1Oc1[nH]c(-c3ccccc3O)nc(=S)c1C2 | 0.63 | 0.66
O=c1c2cc3c(cc2n(Cc2ccc(Cl)cc2)c(=O)n1Cc1nc(-c2ccccc2)no1)OCO3 | nt | 1.1

Compound profiles, from the list above.
COCCNc1sc(S(=O)(=O)c2ccc(C)cc2)nc1S(=O)(=O)c1ccc(C)cc1 as listed: CDC25B CDK2 inh: -3.3; HIV TAR-Tat: -1.6
O=c1c2cc3c(cc2n(Cc2ccc(Cl)cc2)c(=O)n1Cc1nc(-c2ccccc2)no1)OCO3 as listed: CDC25B CDK2 inh: nt; HIV TAR-Tat: 1.1

Further results follow:
Compound | CDC25B CDK2 inh | HIV TAR-Tat
CC1=C(c2ccc(C)c(C)c2)S(=O)(=O)NC1=NC1CCN(Cc2ccccc2)CC1 | -1.7 | -1.3
CC1CCCCC1NC(=O)C1CCN(C(=O)c2sccc2-n2cccc2)CC1 (stereo unspecified) | -1.3 | 1.2
CCC(=O)N1CCc2cc(Br)cc(S(=O)(=O)CCC(=O)N3CCCCC3)c21 | -0.66 | nt
CCOC(=O)c1cccc2c1N[C@@H](c1ccc(F)cc1)[C@H]1CC=C[C@@H]21 | -0.63 | 0.27
FC(F)(F)c1ccc2c(c1)Nc1ccccc1S2 | -3.3 | nt
Cc1nc2sc(C(c3cccs3)N3CCCCC3)c(O)n2n1 (stereo unspecified) | -1.3 | nt
Cn1c(SCc2nc(-c3cccc(Cl)c3)no2)nc2cc3c(cc2c1=O)OCO3 | nt | -0.14
Cc1cc(C)c(S(=O)(=O)Nc2ccc(-c3cn4ccc(C)nc4n3)cc2)c(C)c1 | nt | 0.61
C=CCOc1ccc(C2Nc3ccccc3-c3nnc(SC)nc3O2)cc1 (stereo unspecified) | -0.01 | -2.6
Cc1ccccc1NS(=O)(=O)c1c(C)nc2sccn2c1=O | nt | 0.54
CCc1cc2c(cc(C(=O)OC)n2Cc2cc(=O)n3ccccc3n2)s1 | -0.36 | -0.24
Cc1ccc(S(=O)(=O)c2nc(-c3ccc(F)cc3)oc2S(=O)(=O)C(C)C)cc1 | -4 | 1.2
CCCCC(=O)Nc1c(C)nc2ccc(Cl)cn2c1=O | nt | 0.63
CN(C(=O)NCc1noc2ccccc12)c1ccc(Br)cc1 | nt | -0.53
COc1cccc2c1OC1(C)CC2NC(=S)N1c1ccc(Br)cc1 (stereo unspecified) | -0.78 | nt
Cc1ccc(C(=O)N2c3ncnn3C3(CCCCC3)[C@@H]3CCCC[C@@H]32)cc1 | -0.73 | -0.06
CC1CCN(C(=O)CN2C(=O)C3CCCCN3c3ccc(S(=O)(=O)N4CCCC4)cc32)CC1 (stereo unspecified) | nt | 1.2
CC(=O)c1ccc[nH]1 | nt | 0.87
Cc1cc(C)n2ncc(C(=O)N3CCN(c4ccccn4)CC3)c2n1 | nt | 0.51
Cn1cc(S(=O)(=O)N2CCOCC2)cc1C(=O)N1CCN(c2ccccc2F)CC1 | nt | 1.9
C=CCc1ccccc1OCCOc1ccc(Cl)cc1/C=C1/SC(=S)N(C)C1=O | -1.1 | nt
Cc1ccc(Cn2nnc3cc(C(=O)O)ccc32)cc1 | nt | 0.94
CCOC(=O)c1c(C)[nH]c(C)c1S(=O)(=O)Nc1ccc(F)cc1 | nt | 0.51
CCN(CC)C(=O)CSc1nc2c(c(=O)[nH]1)CCC2 | -3.1 | 2.4
Cc1nc2ncnn2c(C)c1CCC(=O)NC(C)CCc1ccco1 (stereo unspecified) | -1.1 | nt
O=C(Nc1ccc2c(c1)Sc1ccccc1C(=O)N2C1CCCC1)C1CCC1 | nt | 2.7
CCN(CC)CC(=O)N1c2ccccc2Sc2ccc(C(F)(F)F)cc21 | -0.37 | nt
CCCc1nnc(NC(=O)C(CC)Sc2nnc3c(n2)[nH]c2ccccc23)s1 (stereo unspecified) | -1.1 | 0.75
COc1ccc(S(=O)(=O)Nc2ccc3c(c2)N(S(=O)(=O)c2cccs2)CCC3)c(OC)c1 | nt | 0.53
O=C(Nc1ccc2sc(NS(=O)(=O)c3ccccc3)nc2c1)NC1CCCCC1 | nt | 0.76
CN(Cc1ccco1)C(=O)c1noc2c1CSc1ccccc1-2 | -1 | 1.6
O=C(CCC(=O)OCC(=O)c1ccc(Br)cc1)Nc1ccc2ccccc2c1 | -1.6 | nt
COc1ccc(CCNc2nc3ccccc3c3nc(-c4cccnc4)nn23)cc1OC | -0.7 | -1.1
Cc1sc2nc(CNc3ccccc3Cl)[nH]c(=O)c2c1C | -1.2 | -1.3
CCC(C)NC(=O)NCc1cc(C)n(-c2cccc(Cl)c2)c1C (stereo unspecified) | nt | 0
Cc1c(NC(=O)COC(=O)CN2C(=O)C(=O)c3ccccc32)c(=O)n(-c2ccccc2)n1C | 0.8 | 2.8
CCN(c1ccccc1)c1nc2nonc2nc1N(C)C | -2 | 2.3
O=C(c1cc(C2CC2)[nH]n1)N1CCN(c2ccc(Cl)cc2)CC1 | nt | -0.18
CCC(C)Nc1nc(C)nc2c(-c3ccc(C)cc3)noc12 (stereo unspecified) | nt | 1.4
COC(=O)Cn1c(=O)c2c(nc3n2CCN3c2ccc(Cl)cc2)n(C)c1=O | nt | 2.3
N#Cc1ccccc1-c1ccccc1C#N | 0.63 | nt
O=C(Nc1ccccc1)N1CCN(c2nnc(-c3ccccc3)c3ccccc23)CC1 | 0.86 | nt
COc1ccc(OCc2nnnn2-c2ccc(Br)cc2)cc1 | -0.5 | 0.16
O=C(C1CCN(c2nc3cccnc3s2)CC1)N1CCN(Cc2ccc3c(c2)OCO3)CC1 | nt | 1.3
O=C(NCCN1CCCC1)C1CCC(CNS(=O)(=O)c2cccc3cccnc23)CC1 (stereo unspecified) | -1.1 | 1.3
O=C(CN1C(=O)COc2ccccc2C1=O)c1ccc2c(c1)OCCO2 | -0.48 | 0.28
Cc1noc(/C=C/c2ccc(S(=O)(=O)NC3CCCC3)cc2)c1[N+](=O)[O-] | nt | 1.1
Cc1ccc2ncc(NC(=O)c3ccc(F)cc3)c(=O)n2c1 | -1.2 | -3.1
CC1CC(=O)Nc2cc(S(=O)(=O)N(Cc3cccs3)C3CCCC3)ccc2S1 (stereo unspecified) | nt | 1.5
CCOC(=O)c1c(C)c(C(=O)NCCN2CCOCC2)c(C)n1C | -2.1 | nt
C=CCOC(=O)C1=C(C)NC2=C(C(=O)CC(C)(C)C2)C1c1cc(Br)c(O)c(OCC)c1 (stereo unspecified) | 0.12 | 2.1
CCC(C)N1C(=O)c2c(NC(C)=O)c3cc(F)ccc3n2CC1(C)C(=O)NC1CCCCC1 (stereo unspecified) | nt | 1.5
N#Cc1c(NC(=O)CSc2nc3c(c(=O)[nH]2)CCCC3)sc2c1CCCC2 | -1.6 | -0.16
O=C1CCCN1CCCNc1ncnc2c1c(-c1ccccc1)cn2-c1ccc(Cl)cc1 | -1.3 | nt
OC(c1ccccc1)(c1ccc(F)cc1)C(CN1CCOCC1)c1ccccc1 (stereo unspecified) | -1.1 | 0.97
